VACV mCherry inh – vaccinia inhibition (mCherry reporter); Vaccinia virus mCherry reporter infection, fluorescence; about a quarter of the inactives have no number; Potency, µM (top dose mostly 36.5 µM), inactives show at the highest dose activity change, negative = inhibition, usual class: inhibitors; 310,000 compounds, 0.63% hits; AID 720579; active = well fitted inhibition curve with a large enough effect; inconclusive = small, poorly fitted or top-dose-only effect; inactive = no such curve, though single readings can be large or run the other way; tested in A549 cells; also: nearly all actives have a fitted effect of over 35% in size; inactives centre near -10
Vaccinia Venus – vaccinia inhibition (Venus reporter). Vaccinia virus Venus reporter expression, fluorescence. Potency, µM (top dose mostly 36.5 µM), without a hit: top-dose activity change, negative = inhibition, hits mostly inhibitors. 330,000 compounds, 0.46% hits; active means well fitted inhibition curve with a large enough effect; inconclusive means small, poorly fitted or top-dose-only effect; inactive means no such curve, though single readings can be large or run the other way; tested in A549 cells; also: nearly all actives have a fitted effect of over 30% in size; inactives centre near -10
* marks the source's active call; other numbers are inactive results; i = inactive; u = inconclusive; x = not tested or not shown; & = joins results of further samples; [ ] = dose if it differs, or a comment. % is scaled to controls: 0 for no effect and ±100 for the full control effect; potency is read from the fitted curve at half-maximal effect.

entry | canonical_smiles | VACV mCherry inh | Vaccinia Venus
1 | c1ccc(CNC2CCCCCCC2)cc1 (tested in a mixture with another compound) | -1% | -18%
2 | CC1=CC(C)(C)N(C(=O)CN2C(=O)c3ccccc3C2=O)c2ccc(C)cc21 | -6% | -9%
3 | Clc1ccc2nc(C3CCN(Cc4ccccc4)CC3)[nH]c2c1 | -6% | -25%
4 | NC(N)=Nc1nc(-c2ccccc2)c2cc(F)ccc2n1 | -24% | u
5 | COc1ccc(CNC(=O)c2ccc3c(=O)n(CCCN4CCCC4=O)c(=S)[nH]c3c2)cc1 | -29% | -21%
6 | CC(=O)N1CCc2c(sc(NC(=O)Cc3ccccc3)c2C(N)=O)C1 | 4% | 7%
7 | O=C(Cn1cc(C(F)(F)F)ccc1=O)NCCc1ccc(Cl)cc1Cl | -22% | -9%
8 | COc1ccc(NC2=NCCCCC2)cc1 | -2% | -5%
9 | O=C(/C=C/c1ccco1)N1CCN(C/C=C/c2ccccc2)CC1 | -17% | -7%
10 | CCN(CC)S(=O)(=O)c1cccc(N=NC2=C(O)CCCC2=O)c1 | -8% | 2%
11 | O=C(CSc1nccn1Cc1ccco1)Nc1ccccc1 | -19% | -10%
12 | COc1cc(/C=C2\SC(N3CCC(C)CC3)=NC2=O)ccc1O | u | -16%
13 | COc1ccc(OCC(=O)Nc2ccc3nn(-c4ccc(OC)cc4)nc3c2)cc1 | -17%[7.34 µM] | -13%[7.34 µM]
14 | O=C(NCC1CCCO1)c1ccc(COc2ccccc2)o1 (configuration not stated) | -11% | -9%
15 | C[C@H](CO)N1C[C@H](C)[C@@H](CN(C)C(=O)Nc2ccc3c(c2)OCO3)Oc2c(NC(=O)C3CC3)cccc2C1=O | -11% | -13%
16 | CC(C)N(Cc1ccccc1)C(=O)c1cc2ccc3cccnc3c2[nH]1 | u | u
17 | COc1ccc(N(CC(=O)Nc2cc(OC)ccc2OC)S(=O)(=O)c2c(C)nn(C)c2C)cc1 | 7% | -5%
18 | Cc1ccc2c(c1)-c1c(c(C(=O)NCCc3ccccc3)nn1C)CS2 | -4% | -9%
19 | CC(C)Oc1cccc(C(=O)C2CCCN(C(=O)c3ccoc3)C2)c1 (configuration not stated) | -11% | -6%
20 | CCN(CC)S(=O)(=O)c1ccc(N2CCOCC2)c(NC(=O)COc2ccc(C#N)cc2)c1 | -6% | 1%
21 | COC(=O)C1=CN(c2ccc(Cl)cc2)C=C(C(=O)OC)C1c1ccc([N+](=O)[O-])cc1 | -28% | -1%
22 | Cc1ccc2c(c1)/C(=N/O)CCS2 | -17% | -13%
23 | O=C(Nc1ncc(C(F)(F)F)cc1Cl)C1COc2ccccc2O1 (configuration not stated) | x | -15%
24 | Cc1cc(Br)ccc1NC(=O)COc1cc(=O)n(C)c2ccccc12 | -9% | -6%
25 | O=C(c1ccccc1)c1ccc(C(=O)N2CCN(c3ccc(F)cc3)CC2)o1 | x | -5%

Arranged by molecular weight (rising): some entries from above
entry | canonical_smiles | VACV mCherry inh | Vaccinia Venus
9 | O=C(/C=C/c1ccco1)N1CCN(C/C=C/c2ccccc2)CC1 | -17% | -7%
25 | O=C(c1ccccc1)c1ccc(C(=O)N2CCN(c3ccc(F)cc3)CC2)o1 | x | -5%
7 | O=C(Cn1cc(C(F)(F)F)ccc1=O)NCCc1ccc(Cl)cc1Cl | -22% | -9%
17 | COc1ccc(N(CC(=O)Nc2cc(OC)ccc2OC)S(=O)(=O)c2c(C)nn(C)c2C)cc1 | 7% | -5%

Values in list order from the list:
Vaccinia Venus, entries 2–9 → -9%, -25%, u, -21%, 7%, -9%, -5%, -7%
VACV mCherry inh, entries 2–9 → -6%, -6%, -24%, -29%, 4%, -22%, -2%, -17%

The results go on.
entry | canonical_smiles | VACV mCherry inh | Vaccinia Venus
26 | O=C(C[C@H]1C[C@@H]2c3cc(NC(=O)Nc4ccccc4F)ccc3O[C@@H]2[C@H](CO)O1)NCc1ccccn1 | -3% | -4%
27 | COc1ccc(CNc2ccc([N+](=O)[O-])cn2)cc1 | -2% | -11%
28 | CCCc1cc(=O)[nH]c(SCC(=O)NC)n1 | i | -3%
29 | O=C(CSc1nc2ccccc2c(=O)n1CC1CCCO1)Nc1ccc(F)cc1 (configuration not stated) | -12% | 15%
30 | CN(C)c1ccc(-c2nnn(CC(=O)Nc3ccc4c(c3)OCCO4)n2)cc1 | i | -20%
31 | CCOC(=O)c1c(SCC(=O)Nc2nccs2)nc(C)c(C)c1C | -6% | -20%
32 | Cn1c(SCCN2CCCCC2)nnc1-c1ccccc1Br | -11% | -8%
33 | Cc1nc2ccc(N)cc2s1 | i | -7%
34 | COc1cc2c(cc1OC)n(CC(=O)c1cccc(Cl)c1)c(=O)n1nc(CCn3nc(C)cc3C)nc21 | -24% | -15%
35 | O=C(NC1CCCCC1)N1CCCc2ccccc21 | x | -5%
36 | COc1ccc(/C=C2/C(=O)C(C)(C(C)C)CCC2C)cc1 (configuration not stated) | -3% | -15%
37 | O=C(Nc1ccc2nc(SCC(=O)N3CCCC3)sc2c1)c1cccc(Br)c1 | -16% | -19%
38 | CCN(CC)c1ccc(S(=O)(=O)N2CCCCC2)cc1NC(=O)CN1C(=O)NC2(CCCC2)C1=O | i | -9%
39 | Oc1ccc(C[C@@H]2CNCCN2CC2CCCCC2)cc1 | -19% | -19%
40 | Oc1ccc(Br)cc1CNc1cccc2cccnc12 | u | -16%
41 | O=C(C1CCCN(S(=O)(=O)c2ccc(F)cc2)C1)N1CCOCC1 (configuration not stated) | -8% | -10%
42 | Cn1c(O)c(C=Nc2ccc(Br)cc2)sc1=O | -17% | -8%
43 | C=CCNC(=S)N1N=C(c2ccco2)CC1c1ccco1 (configuration not stated) | -10% | -3%
44 | Cc1cc(C)n2nc(-c3ccccc3)c(-c3ccccc3)c2n1 | -20% | -3%
45 | COC(=O)C(C)N1CCC(=O)c2ccccc2S1(=O)=O (configuration not stated) | i | -1%
46 | CC1CCc2nn(CC(=O)Nc3ccccc3Cl)cc2C1 (configuration not stated) | -9% | -13%
47 | CCOP(=O)(Nc1ccc2c(c1)C(=NNC(N)=S)c1ccccc1-2)OCC | 11µM* | u
48 | COC(=O)C1=C(C)NC(=O)NC1c1ccc(-c2ccc(F)cc2)o1 (configuration not stated) | i | 2%
49 | CC1(C(=O)NS(=O)(=O)C2CC2)CCCN(C(=O)c2cccc(OC(F)(F)F)c2)C1 (configuration not stated) | 9% | 1%
50 | CC(C)(C)c1nnc(NC(=O)CCS(=O)(=O)c2ccccc2)s1 | u | u
51 | CN(C)S(=O)(=O)Nc1cccc(Br)c1 | -10% | -5%
52 | O=C(O)Cn1c2c(c3ccccc31)CCCC2 | i | 0%
53 | Cn1c(-c2sc3cc(C(F)(F)F)cnc3c2-c2cccs2)n[nH]c1=S | -7% | -11%
54 | CCOCCCN1C(=O)C(=O)N(CC(=O)N2c3ccccc3NC(=O)CC2C)C1=O (configuration not stated) | -11% | -5%
55 | O=C(CSc1nnc(-c2ccncc2)n1-c1ccccc1)Nc1ccc(F)cc1 | -18% | -3%
56 | Cc1cc(NC(=O)CSc2nccn2-c2ccc(F)cc2)no1 | x | -14%
57 | COc1ccc(-n2nnnc2SCC(=O)NCc2ccco2)cc1OC | -2% | -15%
58 | O=C(Cn1nc(C(=O)O)c2ccccc2c1=O)Nc1ccc(Br)cc1 | -12% | -6%
59 | COc1ccc(/C=C2/CCOC2=O)cc1 | -14% | -2%
60 | O=C(COc1ccccc1)Nc1nnc(-c2ccc(Cl)s2)o1 | i | -6%
61 | CCOC(=O)c1c(NC(=O)c2c(N)n(CCCOC)c3nc4ccccc4nc23)sc2c1CCCC2 | -14% | -19%
62 | CC(C)c1cccc(C(C)C)c1NC(=O)c1ccccc1 | i | -1%
63 | Clc1ccccc1-c1nc(Nc2ccccc2)nc2ccc(Br)cc12 | -8% | -7%
64 | CC(NC(=S)Nc1ccccc1C(F)(F)F)C1CC2CCC1C2 (configuration not stated) | -13% | -5%
65 | CNCCCOc1cccc(Oc2ccccc2)c1 | u | -9%
66 | O=S(=O)(N1CCOCC1)N1CCN(c2ccc(F)cc2)CC1 | i | -13%
67 | CC(C)Cn1c(SCC(=O)N(C)C2CCS(=O)(=O)C2)nc2cc(Cl)ccc2c1=O (configuration not stated) | -8% | -12%
68 | O=C(c1cccnc1)N(c1cc2sc(=O)oc2c2ccccc12)S(=O)(=O)c1ccccc1 | -15% | 3%
69 | Cc1cccn2c(=O)c(C=O)c(N3CCC4(CC3)OCCO4)nc12 | i | -3%
70 | COc1ccc(N2CCN(C(CNC(=O)C(=O)NCc3ccncc3)c3ccco3)CC2)cc1 (configuration not stated) | -17% | -14%
71 | COc1ccc(CCNCC(=O)Nc2ccccc2C(F)(F)F)cc1 | 5% | -2%
72 | O=C(Nc1nc(-c2ccc(Cl)cc2)cs1)C1CCCO1 (configuration not stated) | -21% | -18%
73 | COc1cccc(C(NC(C)=O)c2nc(-c3cccc(C#N)c3)cs2)c1 (configuration not stated) | -28% | 0%
74 | CC1([N+](=O)[O-])COC(c2cccc3ccccc23)OC1 (configuration not stated) | i | -10%
75 | COC(=O)C1CN(C(=O)COc2ccc(Cl)cc2C)c2ccccc2O1 (configuration not stated) | -16% | -9%

Following part
entry | canonical_smiles | VACV mCherry inh | Vaccinia Venus
76 | COc1cc(OC)cc(-c2noc([C@@H]3O[C@H](CO)[C@H](O)[C@H](O)[C@H]3O)n2)c1 | 24% | -2%
77 | Cc1ccc(CN2[C@@H]3c4ccccc4C[C@@H]3OCCS2(=O)=O)cc1 | -9% | -13%&-12%
78 | COc1ccc(-c2c(C(C)=O)c(C)nc3sc4c(=O)[nH]nnc4c23)cc1 | -7% | -11%
79 | CC(C)CC(=O)NC(NC(=O)CC(C)C)c1cccc([N+](=O)[O-])c1 | -6% | -2%
80 | Cc1ccccc1CSCC(=O)NC(=O)NCc1ccco1 | -29% | -11%
81 | Cc1noc2c1C(c1ccc(N(C)C)cc1)C1=C(CC(C)(C)CC1=O)N2 (configuration not stated) | i | -11%
82 | CC1c2[nH]c3ccccc3c2CCN1C(=O)Nc1ccccc1 (configuration not stated) | x | u
83 | CCOc1ccc(-n2c(-c3ccccc3)c(C)n3c4c(=O)n(C)c(=O)n(C)c4nc23)cc1 | -1% | 0%
84 | CC(CN(C)C)CN1c2ccccc2Sc2ccccc21 (configuration not stated) | -4%&-10% | -23%&-25%
85 | COc1ccc(/C=N/Nc2ncc(C(F)(F)F)cc2Cl)cc1OC | -30% | -23%
86 | CCCCN(C(=O)C(C)Oc1ccc(Br)cc1)c1c(N)n(CC(C)C)c(=O)[nH]c1=O (configuration not stated) | -8% | -13%
87 | O=C(Nc1ccc2c(c1)N(C1CCCC1)C(=O)c1ccccc1S2)c1cccc(F)c1 | i | 1%
88 | CC1(C(=O)NC2CCCCC2)Cc2ccccc2C(=O)N1Cc1ccc(F)cc1 (configuration not stated) | -5% | -7%
89 | O=C(O)CCSc1nc2ccccc2c(=O)[nH]1 | x | -3%
90 | O=C(c1ccc(=O)[nH]n1)N1CCN(S(=O)(=O)c2ccc3ccccc3c2)CC1 | -24% | -18%
91 | COC(=O)c1c(NC(=O)CCl)sc(C(=O)N2CCOCC2)c1C | u | u
92 | COc1ccc(Cn2ccnc2SCC(=O)Nc2ccc3c(c2)OCCO3)cc1 | -5% | -15%
93 | O=C(Nc1c(C(=O)N2CCN(c3ccccn3)CC2)oc2ccccc12)c1cccc([N+](=O)[O-])c1 | u | -8%
94 | Cc1ccc(NS(=O)(=O)c2ccc(Cl)nc2)c(C)c1 | u | -29%
95 | O=C(CSc1nnc(COc2ccc(F)cc2)o1)N1c2ccccc2CCc2ccccc21 | -7% | -13%
96 | Cc1ccc(O)c(Nc2nc(-c3ccccc3)nc3ccccc23)c1 | -2% | -9%
97 | O=C(NC1CCCCC1)C(c1ccccn1)N(C(=O)c1csnn1)C1CC1 (configuration not stated) | -4% | 5%
98 | Cc1ccc(OCC(=O)Nc2cc3nn(-c4ccccc4)nc3cc2C)cc1 | -7% | -3%
99 | COc1ccc(NC(=O)C2CCCN(S(=O)(=O)c3c(C)[nH]c(=O)[nH]c3=O)C2)c(OC)c1 (configuration not stated) | -1% | 5%
100 | CCC(=O)N1N=C(c2ccccc2)CC1c1ccc([N+](=O)[O-])cc1 (configuration not stated) | -24% | -9%
101 | Cn1cnnc1SCC(=O)N/N=C/c1ccc(OCC(N)=O)cc1 | -14% | -4%
102 | Cc1cccc(S(=O)(=O)c2cn(C)c3cc(N4CCN(c5ccccc5)CC4)c(F)cc3c2=O)c1 | -9% | -9%
103 | CN(C(=O)COC(=O)CCCN1C(=O)c2cccc3cccc(c23)C1=O)C1CCS(=O)(=O)C1 (configuration not stated) | i | 5%
104 | Cc1ccc(C)c(NC(=O)CCC(=O)NNC(=O)C(c2ccccc2)c2ccccc2)c1 | -14% | -8%
105 | O=C1CC(/C=C/c2ccc([N+](=O)[O-])cc2)=Nc2ccccc2N1 | u | -18%
106 | COc1ccc(N2CCN(C(=O)Cn3nnc(-c4ccccc4N)n3)CC2)cc1 | i | -12%
107 | CCN1CCN(C(=O)c2cnn(-c3ncc4c(n3)-c3ccccc3CCC4)c2COC)CC1 | -1% | -19%
108 | COC(=O)[C@@H]1C[C@@]2(O)[C@@H](O)[C@@H](O)[C@@H](O)C[C@H]2N1CC(c1ccccc1)c1ccccc1 | -14% | -5%
109 | O=c1c2c3n(c(=S)nc2[nH]n1-c1ccccc1)CCCCC3 | -20% | -19%
110 | CN(C)C(=O)C(=O)c1cccn1-c1ccccc1C#N | i | -4%
111 | O=c1c2[nH]c3ccc(F)cc3c2ncn1CCC1=CCCCC1 | 6% | -5%
112 | Cc1cccc(-c2nc(S(=O)(=O)c3ccccc3)c(N3CCN(c4ccccc4)CC3)o2)c1 | -17% | -6%
113 | COc1ccccc1OCc1ccc(C(=O)NCCN(C)C)o1 | x | -14%
114 | COc1ccc(NC(C)=O)cc1NC(=O)CN1CCN(c2ccccn2)CC1 | -28% | -1%
